# Bioassay records: PubChem, National Center for Advancing Translational Sciences (NCATS)
# CtBP-E1A blk: blocks the CtBP interaction with E1A. AlphaScreen GST-E1A/His-CtBP binding, 1536-well; stronger effect = lower value; control for the full effect not named in the record. activity change, % (concentration not given with the values). hit rate 0.49% among 340,000; in the data active means activity change below about -65%; inconclusive means about -30% to -65%; inactive means above about -30%; also: % is scaled to controls: 0 for no effect and ±100 for the full control effect
#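 In 5 uL wells, 23 nL compound meets equimolar GST-E1A and His-CtBP (5X stock 125 nM each) for 2 h, 37 °C. Beads (5X, 50 ug/mL) then 1 h, 37 °C, dark.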
# Six1-Eya2 inh: inhibitors of human Six1/Eya2 interaction. Q15475+O00167. AlphaScreen GST-Six1/His-Eya2 binding, biochemical; stronger effect = lower value; control for the full effect not named in the record. activity change, % (no concentration beside the values). hit rate 0.56% among 360,000. AID 651725; in the data active = activity change below about -65%; inconclusive = about -30% to -65%; inactive = above about -30%; also: % is scaled to controls: 0 for no effect and ±100 for the full control effect; compound concentration not given in the record
#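 AlphaScreen luminescence read after one hour at 37 °C in darkness. Pin-transferred compounds met GST-Six1 and His-Eya2 protein (5X stock 250 nM/500 nM) plus glutathione donor and Ni-chelate acceptor beads (5X, 50 ug/mL).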
# D2 potentiator: potentiates the human D2 dopamine receptor allosterically. P14416. DiscoveRx D2 beta-arrestin cells, luminescence, 90 min; 100% = 57 uM dopamine signal. potentiation, % (no concentration beside the values). hit rate 0.23% among 360,000; active = potentiation of 50% or more; inconclusive = 30% to 50%; inactive = 30% or less;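 also: compound concentration not given in the record; tested on top of an EC20 dose of dopamine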
#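 D2 cells co-treated with compound plus 50 nM dopamine (EC20) for 90 min at 37 deg C to detect potentiation. Beta-arrestin recruitment was read as enzyme-fragment luminescence after 1 h at ambient temperature. Full response was set by 57 uM dopamine.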
# PINK1 expr mod: PINK1 expression modulation | PINK1 immunofluorescence, high-content cytometry, 24 h | Potency, µM (series often up to 76.6 µM), without a hit: top-dose activation (PINK1 increase), actives largely listed as activators | hit rate 0.2% among 410,000 | AID 624263; active = well fitted activation curve with a large enough effect; inconclusive = small, poorly fitted or top-dose-only effect; inactive = flat fitted curve, though single readings scatter; cell line not stated here;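 also: potency is read from the fitted curve at half-maximal effect; % of control where 0% means no effect; nearly all actives have a fitted effect of over 65% in size; a mitochondrial uncoupler was the plate control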
#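 Fluorescence from anti-PINK1 antibody, together with nuclear and cell stains, was scanned on a laser-scanning cytometer. Before staining, stable-line cells were incubated 24 hours with compounds at 5 concentrations; primary antibody 12 h at 10 degrees C.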
# TRPV1 potentiator: enhances activation of the human vanilloid receptor TRPV1; TRPV1-expressing cells, Fluo-8 calcium influx, capsaicin EC20 potentiation; host cell line not named in the record; control for the full effect not named in the record; hit rate 0.02% among 320,000; potentiation, % at 8.33 µM; active means potentiation above 80%; inconclusive means 30% to 80%; inactive means below 30%; also: 0% is about no effect
# Target sequence (Q8NER1 whole entry, looked up): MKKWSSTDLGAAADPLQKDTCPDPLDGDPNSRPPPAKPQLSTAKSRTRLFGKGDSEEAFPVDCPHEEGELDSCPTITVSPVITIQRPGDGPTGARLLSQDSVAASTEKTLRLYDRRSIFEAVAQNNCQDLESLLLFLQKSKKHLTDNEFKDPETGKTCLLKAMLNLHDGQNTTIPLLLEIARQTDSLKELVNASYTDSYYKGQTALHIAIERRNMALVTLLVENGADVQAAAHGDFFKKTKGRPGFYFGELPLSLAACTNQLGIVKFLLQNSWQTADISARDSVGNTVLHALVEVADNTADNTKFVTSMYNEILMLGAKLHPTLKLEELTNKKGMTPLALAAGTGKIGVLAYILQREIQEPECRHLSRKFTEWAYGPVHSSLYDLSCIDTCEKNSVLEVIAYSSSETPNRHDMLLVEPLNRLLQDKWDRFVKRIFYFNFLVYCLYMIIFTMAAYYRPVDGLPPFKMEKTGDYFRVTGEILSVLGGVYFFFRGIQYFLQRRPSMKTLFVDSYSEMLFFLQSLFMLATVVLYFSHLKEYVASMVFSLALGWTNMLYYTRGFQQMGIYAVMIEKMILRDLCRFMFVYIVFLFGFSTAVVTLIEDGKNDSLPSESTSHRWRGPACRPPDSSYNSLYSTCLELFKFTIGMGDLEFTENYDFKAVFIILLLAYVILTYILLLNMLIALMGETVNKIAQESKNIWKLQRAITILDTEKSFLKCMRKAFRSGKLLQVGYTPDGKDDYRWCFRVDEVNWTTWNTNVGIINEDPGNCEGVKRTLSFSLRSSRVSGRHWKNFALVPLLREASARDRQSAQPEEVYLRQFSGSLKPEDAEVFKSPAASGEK
#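 Fluo-8 calcium influx in TRPV1-expressing cells, kinetic read (ex 480/em 520 nm). Compound added and read 3 min for agonist activity, followed by capsaicin at EC20 final and 2 min further read for enhancement.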
# D2 agonist: agonists of human D2 dopamine receptor (beta-arrestin). P14416. DiscoveRx PathHunter D2 beta-arrestin, luminescence, 90 min; 100% = 57 uM dopamine signal. activation, % (concentration not given with the values). hit rate 0.084% among 360,000. AID 624465; in the data active = activation above about 40%; inconclusive = about 15% to 40%; inactive = below about 15%; also: compound concentration not given in the record; the text of the record calls up to 30% inactive
#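 Agonist mode: compounds alone added to overnight-plated D2 PathHunter cells for 90 min at 37 C, with 57 uM final dopamine (EC100) defining full response. Beta-arrestin recruitment detected by chemiluminescent reagent, read after 1 h at ambient temperature.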
# Sfp PPTase inh: inhibitors of Bacillus subtilis Sfp phosphopantetheinyl transferase; Q9F4F7; Biochemical Sfp PPTase activity, qHTS; Potency, µM, for the others: max response, negative = inhibition, usual class: inhibitors; hit rate 3.5% among 310,000; AID 1490; active = well fitted inhibition curve with a large enough effect; inconclusive = small, poorly fitted or top-dose-only effect, or another doubt; inactive = no such curve, though single readings can be large or run the other way;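 also: the enzyme is Sfp with the accession as filed and its product quenches rhodamine fluorescence; potency is read from the fitted curve at half-maximal effect; 0% = enzyme reaction without inhibitor and -100% = no enzyme wells; top concentration of the series not given in the record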
#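 Fluorescence-quenching assay: 15 nM Sfp-PPTase preincubated 15 min at room temperature with compound, then 5 uM rhodamine-CoA and 12.5 uM BHQ-2-labelled YbbR peptide added. Fluorescence (ex 525/em 598 nm) read at start and after 30 min; difference gives rate.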
# * = called active by the depositor; ? = inconclusive; / = no result given; [ ] = dose if it differs, or a comment. Only part of the results is shown; count on the stated rates, not on these rows.
SMILES,CtBP-E1A blk,Six1-Eya2 inh,D2 potentiator,PINK1 expr mod,TRPV1 potentiator,D2 agonist,Sfp PPTase inh
O=c1[nH]c(=S)n(C2CC2)c(O)c1C=Nc1ccc2c(c1)OCO2,-3.5,-16.1,2.8,6.4%,?,-3.8,56.2µM*
CCCCCCN1CCN(c2ccc(Cl)cc2)CC1,-7.9,-18.2,-23.0,?,9.7,4.6,-23.4%
C[C@H]1CCC[C@@H](O)CCC/C=C/c2cc(O)cc(O)c2C(=O)O1,-2.0,-2.9,-3.2,-6.8%[38.3 µM],0.3,1.3,13.3%
O=C(O)c1ccc([N+](=O)[O-])c([N+](=O)[O-])c1,-4.2,9.1,-1.9,0.1%,/,8.2,/
N#CCCn1cc(C(=O)Nc2ccc(F)cc2)c(-c2ccc([N+](=O)[O-])cc2)n1,/,0.0,-9.9,4.5%,27.6,8.3,2.3%
Cc1cccc(C)c1NC(=O)CN(C)CC(=O)Nc1ccc(C#N)c(Cl)c1,0.0,18.7,-10.4,-1.3%,2.2,-2.9,-3.1%
COc1ccc(CN2CC3CC(C2)c2cccc(=O)n2C3)cc1OC (configuration not stated),38.1,23.2,1.4,-2.0%[38.3 µM],?,0.7,19.0%
Cn1c(O)c(C(=O)c2ccccc2)c(=O)n(C)c1=O,3.1,6.2,12.6,-0.9%,-1.1,0.3,-44.5%
O=c1[nH]c(=S)n(C2CC2)c(O)c1C=NCC1CCCO1 (configuration not stated),13.4,0.6,-2.4,3.2%,9.7,-13.3,-7.2%
CCc1ccc(C(=O)C23CN4CN(CN(C4)C2)C3)cc1,-2.5,1.5,-11.7,0.8%[38.3 µM],6.6,-0.8,7.2%
CCN1CCN(Cc2ccc(C)cc2C)CC1,2.4,3.5,-6.5,-3.9%,-3.1,-3.5,7.6%
COc1ccc(/C=C/C2=CCN(C)CC2)cc1,/,-1.2,-5.6,0.9%,12.7,-3.7,-0.2%
CCOC(=O)C1=C(C)OC(N)=C(C(=O)OC)C12C(=O)Nc1ccc(Br)cc12 (configuration not stated),-2.7,7.2,-11.1,0.6%,3.7,3.9,12.6%
C[C@H]1O[C@@H](OC2CC[C@]3(C=O)[C@H]4CC[C@]5(C)[C@@H](C6=CC(=O)OC6)CC[C@]5(O)[C@@H]4CC[C@]3(O)C2)CC2OC(C)(C)OC21 (some centres not stated),/,2.2,-7.4,-1.3%,3.1,1.1,9.6%
c1ccc(Nc2ccc3ccccc3c2)cc1,24.3,17.2,-19.7,5.0%,/,5.1,/
COc1ccc(CCNC2(C#N)CCCCC2)cc1OC,-3.3,-12.5,-4.8,0.0%,/,-4.5,/
Cn1c(O)c(C=NC2CCN(Cc3ccccc3)CC2)c(=O)n(C)c1=O,1.2,0.9,-7.9,-0.1%,-7.3,-0.4,6.3%
ClCCN1CCN(c2ccnc3cc(Cl)ccc23)CC1,2.1,1.9,-5.7,-0.2%,-11.1,-4.9,-16.1%
CC(C(=O)c1c[nH]c2ccccc12)N1CCc2ccccc2C1 (configuration not stated),-1.9,-0.5,-10.5,0.3%,4.6,0.9,10.8%
Fc1cccc(CNCCc2c[nH]c3ccccc23)c1,/,-2.9,-59.1,-0.6%,4.7,-1.0,1.9%
Cc1ccc(S(=O)(=O)N2CCC(C(=O)N3CCC4(CC3)OCCO4)CC2)cc1,-0.2,1.6,4.4,-2.1%[38.3 µM],9.9,0.0,7.8%
CCC(=NCc1ccco1)c1c(O)[nH]c(=O)[nH]c1=O,-0.5,-0.9,-15.4,0.5%,-7.6,-1.0,16.4%
Cc1[nH]c2c(C(F)(F)F)cccc2c1CCN,-9.1,-3.0,-8.0,9.7%,-10.3,2.7,-0.3%
COC(=O)C1=C(c2cccc(OCc3ccccc3)c2)C[C@@H]2CC[C@H]1N2C(=O)NCCN1CCOCC1,-2.0,-2.7,-9.2,1.5%,10.3,-4.8,/

# Entries listed so far containing a nitro group on carbon, in the order listed:
SMILES,CtBP-E1A blk,Six1-Eya2 inh,D2 potentiator,PINK1 expr mod,TRPV1 potentiator,D2 agonist,Sfp PPTase inh
O=C(O)c1ccc([N+](=O)[O-])c([N+](=O)[O-])c1,-4.2,9.1,-1.9,0.1%,/,8.2,/
N#CCCn1cc(C(=O)Nc2ccc(F)cc2)c(-c2ccc([N+](=O)[O-])cc2)n1,/,0.0,-9.9,4.5%,27.6,8.3,2.3%

# Continuation:
SMILES,CtBP-E1A blk,Six1-Eya2 inh,D2 potentiator,PINK1 expr mod,TRPV1 potentiator,D2 agonist,Sfp PPTase inh
CC(=NCCC1=CCCCC1)c1c(O)n(C)c(=O)n(C)c1=O,-1.0,3.7,-1.5,0.4%,4.9,-2.1,7.2%
Cc1cc(OC(C)C(=O)NCc2ccncc2)c2c3c(c(=O)oc2c1)CCCC3 (configuration not stated),/,7.8,-4.3,2.7%,-15.2,-4.3,13.3%
CCC1C2Cn3c(nc4ccccc43)C1N(C)O2 (configuration not stated),4.9,1.5,0.7,0.1%,?,-1.8,14.6%
COC(=O)C1=C(C)NC(=S)NC1c1ccc(N(CCCl)CCCl)cc1Cl (configuration not stated),-1.0,-13.3,-2.2,-5.2%,/,12.0,/
Cc1ccc(N)c(C(=O)c2ccc(Br)cc2)c1,-24.3,?,-3.0,2.6%,-2.3,-1.8,0.5%
O=C(C[N+]12CCC(CC1)C(CO)C2)c1ccc(Br)cc1 (configuration not stated),4.9,-5.5,-5.2,3.4%,9.5,-3.1,15.5%
CC1(C)OC(c2ccccc2)=C/C(=C/C=C2C(=O)NC(=S)NC2=O)O1,0.7,-3.0,4.0,?,-0.5,9.5,39.8µM*
COC(=O)c1cn(Cc2ccc(F)cc2)c2ccccc12,8.2,13.8,-5.8,4.5%,/,-0.6,/
O=C(Cn1c2c(c(-c3ccccc3Cl)cc1=O)CCC2)N1CCC2(CC1)OCCO2,7.7,0.0,13.1,2.7%,0.3,-2.8,22.4µM*
O=C1CC=C2C3CC4N(CCC45c4ccccc4N1C25)CC3=CCO (configuration not stated),8.2,-1.4,-6.2,-2.1%,/,-2.1,/
Cc1ccc(OCCn2cccc2/C=C2/C(=O)NC(=O)N(Cc3ccco3)C2=O)cc1,8.0,?,-3.8,4.1%,-17.6,0.6,?

# Structures shown so far containing a halogen, in the order listed:
SMILES,CtBP-E1A blk,Six1-Eya2 inh,D2 potentiator,PINK1 expr mod,TRPV1 potentiator,D2 agonist,Sfp PPTase inh
CCCCCCN1CCN(c2ccc(Cl)cc2)CC1,-7.9,-18.2,-23.0,?,9.7,4.6,-23.4%
N#CCCn1cc(C(=O)Nc2ccc(F)cc2)c(-c2ccc([N+](=O)[O-])cc2)n1,/,0.0,-9.9,4.5%,27.6,8.3,2.3%
Cc1cccc(C)c1NC(=O)CN(C)CC(=O)Nc1ccc(C#N)c(Cl)c1,0.0,18.7,-10.4,-1.3%,2.2,-2.9,-3.1%
CCOC(=O)C1=C(C)OC(N)=C(C(=O)OC)C12C(=O)Nc1ccc(Br)cc12 (configuration not stated),-2.7,7.2,-11.1,0.6%,3.7,3.9,12.6%
ClCCN1CCN(c2ccnc3cc(Cl)ccc23)CC1,2.1,1.9,-5.7,-0.2%,-11.1,-4.9,-16.1%
Fc1cccc(CNCCc2c[nH]c3ccccc23)c1,/,-2.9,-59.1,-0.6%,4.7,-1.0,1.9%
Cc1[nH]c2c(C(F)(F)F)cccc2c1CCN,-9.1,-3.0,-8.0,9.7%,-10.3,2.7,-0.3%
COC(=O)C1=C(C)NC(=S)NC1c1ccc(N(CCCl)CCCl)cc1Cl (configuration not stated),-1.0,-13.3,-2.2,-5.2%,/,12.0,/
Cc1ccc(N)c(C(=O)c2ccc(Br)cc2)c1,-24.3,?,-3.0,2.6%,-2.3,-1.8,0.5%
O=C(C[N+]12CCC(CC1)C(CO)C2)c1ccc(Br)cc1 (configuration not stated),4.9,-5.5,-5.2,3.4%,9.5,-3.1,15.5%
COC(=O)c1cn(Cc2ccc(F)cc2)c2ccccc12,8.2,13.8,-5.8,4.5%,/,-0.6,/
O=C(Cn1c2c(c(-c3ccccc3Cl)cc1=O)CCC2)N1CCC2(CC1)OCCO2,7.7,0.0,13.1,2.7%,0.3,-2.8,22.4µM*
